Vaccinia Venus – inhibitors of vaccinia virus (Venus reporter); actives 0.46% (n = 330,000); AID 720580; Potency, µM (titrated, usually from 36.5 µM), for inactives: top-dose activity change, negative = inhibition, actives largely listed as inhibitors; Vaccinia virus Venus reporter expression, fluorescence; active means well fitted inhibition curve with a large enough effect; inconclusive means small, poorly fitted or top-dose-only effect; inactive means no such curve, though single readings can be large or run the other way; tested in A549 cells; note: nearly all actives have a fitted effect of over 30% in size; inactives centre near -10
VACV mCherry inh – inhibitors of vaccinia virus infection (mCherry reporter signal); Potency, µM (top dose mostly 36.5 µM), without a hit: at the highest dose activity change, negative = inhibition, actives largely listed as inhibitors; Vaccinia virus mCherry reporter infection, fluorescence; about a quarter of the inactives have no number; actives 0.63% (n = 310,000); active = well fitted inhibition curve with a large enough effect; inconclusive = small, poorly fitted or top-dose-only effect; inactive = no such curve, though single readings can be large or run the other way; tested in A549 cells; note: nearly all actives have a fitted effect of over 35% in size; inactives centre near -10
Starred values were filed as active, the others as inactive; i = inactive; ? = inconclusive; . = not tested or not shown; & = joins results of further samples; [ ] = dose if it differs, or a comment. % is set by controls: 0 for no effect and ±100 for the full control effect; potency is the fitted concentration of half-maximal effect.

SMILES	Vaccinia Venus	VACV mCherry inh
O=C(CN(CCO)Cc1ccccc1)N1CCN(S(=O)(=O)c2ccccc2)CC1	-7%	-2%
CCc1nnc(NC(=O)C2CC(=O)N(C3CCCC3)C2)s1 (centres undefined)	6%	-16%
CC1(C)Cc2c(sc3nc(SCC(=O)NCc4ccco4)n(-c4ccccc4)c(=O)c23)CS1	-15%	-15%[1.46 µM]
NC(COCc1ccccc1)c1csc(Nc2nccc(C(F)(F)F)n2)n1 (centres undefined)	1%	31%[activator]
COc1ccc(CCNC(=O)Cn2nnc(-c3ccc(C(F)(F)F)cc3)n2)cc1OC	2%	10%
Cc1cn([C@H]2C[C@H](O)[C@@H](/C=C/C(=O)NCCC(c3ccccc3)c3ccccc3)O2)c(=O)[nH]c1=O	1%	16%
CC(C(=O)NC1=NCCS1)(C(F)(F)F)C(F)(F)F	-7%	.
COc1ccc(C)cc1-n1c(=O)c2ccccc2c2ccccc2c1=O	-15%	-7%
O=C1C=C(c2ccc(-c3ccccc3)c(F)c2)C[C@@H](c2ccc(F)cc2)C1	-12%	i
CCCCOc1ccc(S(=O)(=O)n2nc(C)c(S(=O)(=O)N3CCCCCC3)c2C)cc1	-2%	5%
CC(=O)c1cccc(NC(=O)N2CCC(c3nnc(SCC(N)=O)n3C)CC2)c1	-13%	-19%
CC(C)NC(=O)COC(=O)c1ccc(Cl)c(S(=O)(=O)N2CCCC2)c1	-17%	-23%
Cc1ccc(OC(=O)N(C)C[C@@H]2OCc3cnnn3CCCC(=O)N([C@H](C)CO)C[C@H]2C)cc1	-12%	i
COc1ccccc1CNS(=O)(=O)c1cc(C)ccc1OC	-19%	.
OC(c1cccc(Cl)c1)c1ncc(-c2ccc(Oc3ccccc3)cc2)[nH]1 (centres undefined)	-21%	-29%
O=C(Nc1ccc(OC(F)(F)F)cc1)C1CCCN(S(=O)(=O)c2cccc3nonc23)C1 (centres undefined)	-3%	-1%
CCOc1ccccc1N=CC1=C(O)CC(c2ccccc2)CC1=O (centres undefined)	-27%	-28%
COc1ccccc1C(=O)Nc1ccccc1N1CCN(S(C)(=O)=O)CC1	-5%	.
Cc1ccc(C(=O)N/N=C\c2ccc(-c3ccc(Cl)c(Cl)c3)o2)cn1	?	-18%
CN(C)c1ccc(-c2nc(-c3cc4cc(Cl)ccc4oc3=O)cs2)cc1	-17%	0%
CCOc1cc(/C=N\NC(=O)OC)ccc1OC(=O)c1ccco1	-5%	-3%
Cc1ccc(N2CCN(C(=O)C3CCN(c4ncnc5c4nc4n5CCCCC4)CC3)CC2)c(C)c1	-25%	-14%
Cc1c(Br)ccc(NC(=O)COc2ccccc2C(N)=O)c1C	-5%	-14%
CC(C)c1ccc(CN2CCC(n3nccc3NC(=O)C3CCCC3)CC2)cc1	-29%	-15%
O=C1OC(c2ccc(F)cc2)=N/C1=C\C=C/c1ccccc1	-14%	i
O=C1N(Cc2cccnc2)C[C@@H]2C[C@@H](c3ccc(C(F)(F)F)cc3)N3CCC[C@@]123	3%	i
CCOC(=O)c1ccc(NC(=O)CSc2nccn2Cc2ccc(OC)cc2)cc1	-11%	i
CC(C)(Oc1ccc(Cl)cc1)C(=O)NC1CCCCC1	-12%	-23%
O=C(/C=C/c1ccc(OC2CSC2)cc1)c1ccc(Cl)cc1	-9%	i
CCOc1ccc(CCNC(=O)CCCn2c(=O)c3cccn3c3cccnc32)cc1	-11%	-18%
CC(C)C(C(=O)NCc1ccco1)N(CC1CCCO1)C(=O)CNS(=O)(=O)c1ccc(F)cc1 (centres undefined)	-13%	-11%
CCCCn1c(=O)[nH]c(=O)c2c1nc(COc1ccc(C#N)cc1)n2CCC	-22%	.
N=C1C(c2nc3ccccc3c(=O)[nH]2)=C(O)CN1CCO	0%	-8%
CC[C@@]1(C(=O)OC)N[C@H](CN(C)C(=O)Nc2ccc(F)cc2)[C@@H]2C(=O)N(Cc3ccccc3)C(=O)[C@@H]21	-6%	-5%
COCCN1CCn2c(nc3cc(NC(=O)Cn4nc(C)c5ccccc5c4=O)ccc32)C1	-4%[7.34 µM]	i[7.34 µM]
CC1(C)CC(=O)c2sc(NC(=O)CN3CCCCC3)nc2C1	5%	.
O=C(NCc1cccs1)C1CCC(CNS(=O)(=O)c2ccc(Br)s2)CC1 (centres undefined)	-21%	.
CC(C)CNc1nc(N)c([N+](=O)[O-])c(N2CCCCCC2)n1	?	?
Cn1c(-c2ccccc2Br)n[nH]c1=S	-7%	.
Cc1nc(NC(=S)NC(=O)c2cncc(Br)c2)ccc1Br	5%	2%
O=c1[nH]c(=O)n(-c2cccc(F)c2)c(O)c1/C=C1\C=Nc2ccccc21	7%	-14%
Cc1ccc(S(=O)(=O)N/N=C\c2cc([N+](=O)[O-])ccc2Cl)cc1	-18%	-9%
CC(=O)c1ccccc1NC(=O)CSc1nnc(Cc2csc(C)n2)o1	-19%	i
Cc1nc(SCc2ccccc2)c([N+](=O)[O-])[nH]1	-1%	-9%
CCC(c1nnnn1C(C)(C)C)N1CCN(c2cc(Cl)ccc2C)CC1 (centres undefined)	-29%	.
CC(=O)N1N=C(N)SC1c1cccc([N+](=O)[O-])c1 (centres undefined)	-6%	i
Cc1cccc(N2CCN(C(=O)CN3C(=O)COc4ccc(S(=O)(=O)N5CCC(C)CC5)cc43)CC2)c1C	-1%	-2%
CC(=O)N/C(=C\c1ccc(F)cc1)C(=O)NC(C(=O)O)C(C)C (centres undefined)	-8%	-18%
COC1Cc2ccccc2N(C(N)=O)c2ccccc21 (centres undefined)	-14%	i
COc1ccc(CN(C)Cc2c(O)ccc3cc(Br)ccc23)cc1OC	-14%	?
Cc1nn(-c2ccccc2)c(OC(=O)C(C)(C)C)c1Sc1ccccc1	-10%[7.34 µM]	-1%[7.34 µM]
CCNC(=O)n1cc(-n2cncn2)c(-c2ccccc2)n1	-17%	i
Cc1ccc2c(c1)c1c(c(=O)n(Cc3ccccc3)c(=O)n1CC(=O)NCc1ccccc1Cl)n2C	4%	9%
COCCOC(=O)c1c(NC(=O)CNc2ccc(C)c(F)c2)sc(C(N)=O)c1C	-13%	?
Cc1cc(C(=O)NN)c2cc(Br)ccc2n1	-24%	?
CC(C)Cc1ccc(-c2cc3nc(NCCCn4ccnc4)ccn3n2)cc1	-17%	-1%
NC(=O)C1CCN(C(=O)C2CCC(=O)N(Cc3ccc(Cl)cc3)C2)CC1 (centres undefined)	-17%	-12%
CCC(=O)Nc1cccc(NC(=S)NC(=O)c2ccc(Cl)cc2)c1	-23%	-4%
Cc1noc(C)c1-c1ccc(C(=O)NCCC(F)(F)F)c2occc12	-15%	-5%
COc1ccc(N2CCN(C(=O)C(=O)c3cc(OC)c4ccccc4c3)CC2)cc1	-18%	-15%

Other structures.
SMILES	Vaccinia Venus	VACV mCherry inh
Cc1ccc(C(=O)NCC(=O)O)s1	-14%	i
COc1ccc(OC)c(CNS(=O)(=O)c2ccc3c(c2)oc(=O)n3C)c1	-11%	-20%
CCOc1cc(C2Nc3ccccc3-c3nnc(SCc4ccccc4)nc3O2)ccc1OC (centres undefined)	-6%	-10%
COc1ccc(-c2noc(CCC(=O)N3CCC(c4cc(C)ccc4C)CC3)n2)cc1	-7%	-1%
Cc1cccc(C(=O)NC(=S)Nc2ccc(N3CCOCC3)cc2)c1	-21%	-27%
COc1ccc(CNC(=O)Cc2ccc(OC)c(S(=O)(=O)N3CCOCC3)c2)cc1	-3%	-5%
CN(C)S(=O)(=O)c1ccc(/C(O)=C2/C(=O)C(=O)N(Cc3cccnc3)C2c2cccs2)cc1 (centres undefined)	-10%	-5%
CCOc1ccc2[nH]c(=S)[nH]c2c1	?	.
Cc1cccc(C)c1NC(=O)CN(C)C(=O)c1ccccc1OCc1ccc(F)cc1	-18%	i
CCc1cccc(NC(=O)CSc2nccn2C)c1	4%	-3%
Cc1ccc(NC(=O)c2ncn(CCCNCc3ccccn3)n2)cc1C	-22%	-22%
COc1ccc(/C(C)=N/OCC(=O)N=Nc2c(O)[nH]c3ccccc23)cc1	-6%	i
COc1ccc(NC(=O)C2=CC(c3ccco3)=NS(=O)(=O)N2C)cc1	-7%&-2%	-5%&-8%
CCOc1ccccc1N(CC)C(=O)c1cc2c(=O)n(CC)c3ccccc3c2s1	?	?
CCCc1ccc2oc(C(=O)N3CCN(C4CCS(=O)(=O)C4)CC3)c(C)c2c1 (centres undefined)	-8%	-9%
Clc1ccc(Cn2ncc3c(NCc4ccco4)ncnc32)c(Cl)c1	?	.
CN(C)CCCOC(=O)c1sc2ccccc2c1Cl	-4%	i
Cc1ccc(NC(=O)c2ccccc2Cl)c(Cl)c1	-10%	-17%
O=C(O)c1n[nH]c2c1CCCC2	-10%	-12%
Cc1onc(-c2ccccc2)c1C(=O)N1CCC(C)(C(=O)O)C1 (centres undefined)	1%	11%
COc1cc(/C=C/C(=O)N2CCN(C(=O)/C=C/c3cc(OC)c(OC)c(OC)c3)CC2)cc(OC)c1OC	-13%	-14%
O=C(OCc1cccnc1)C1=Cc2ccccc2OC1	-3%	-5%
C/C(=N/NC(=O)c1ccoc1C)c1ccc(NC(=O)C2CCCC2)cc1	-11%	-24%
CC(CNC(=O)C(C)C)NC(=O)C(C)C (centres undefined)	-6%	-3%
CC(C)CCN1C(=O)c2ccc(C(=O)NCc3ccco3)cc2C1=O	-6%	.
CS(=O)(=O)N1CCCCC1c1cc(C(=O)Nc2ccccc2)no1 (centres undefined)	-4%	-8%
O=C(NCc1cccnc1)c1csc([C@@H]2C[C@H](O)[C@@H](CO)O2)n1	-17%	?
COc1ccccc1Cc1c(-c2ccc(F)cc2)nc2c(C)cc(Br)cn12	-16%	5%
O=C(CN1C(=O)C2CCCCC2C1=O)OCC(=O)c1ccc(Cl)s1 (centres undefined)	-18%	-17%
O=S(=O)(NCCC(c1ccc(F)cc1)c1ccco1)c1ccccc1 (centres undefined)	-24%	-29%
COCCCNC(=O)c1c[nH]c2ccc(S(=O)(=O)N3CCC(C)CC3)cc2c1=O	-18%	i
O=C(O)c1ccccc1-n1cccc1C(=O)O	-3%[7.34 µM]	i[7.34 µM]
Cc1ccc(CNC(=O)c2ccc(N(C)S(=O)(=O)c3ccccc3)cc2)cc1	-6%	-17%
COc1ccc(CNc2ncnc3nc[nH]c23)cc1OC	-11%&-16%	-11%&-11%
CCn1c(=NC(=O)CSC(C)=O)sc2cc(F)ccc21	-2%	.
CCC(C)Sc1nc2c(cnn2-c2ccc(C)c(C)c2)c(=O)[nH]1 (centres undefined)	-9%	i
CC(=O)Nc1ccc(NC2(C)C(=O)c3ccccc3C2=O)cc1	-36%	.
Cc1ccc(C2=NOC(c3nnc(-c4ccccc4)o3)C2)cc1 (centres undefined)	-2%	-11%
Cc1cccc(NC(=O)CSc2cccc3cccnc23)c1C	-21%	-8%
O=C(Oc1ccc(Br)cc1C(=S)N1CCOCC1)c1ccc([N+](=O)[O-])cc1[N+](=O)[O-]	-13%	-20%
CCC(C)n1c(O)c(C=NCC2CCCO2)c(=O)[nH]c1=S (centres undefined)	-19%	i
OCCNNC(=S)NC1CC2C=CC1C2 (centres undefined)	-8%	-17%
COc1cc(C)ccc1OCc1cc(C(=O)N(Cc2c(C)nn(C)c2C)C2CC2)no1	-19%	i
COc1cccc(/C=N/NC(=O)c2cccc3ccccc23)c1	-17%	-27%
Cc1nc(-c2ccc(NC(=O)C3CC3)cc2)cs1	-9%	-3%
COC(=O)c1ccc(NC(=O)CN(Cc2ccccc2)S(=O)(=O)c2ccc(C)cc2)cc1	-6%	-15%
Cc1cc(C)c2c(=O)[nH]c(SCC(=O)NCc3ccccc3)nc2n1	-3%	i
COc1cccc2c1CCC1=CC(=O)CC[C@@]12C	-6%	-16%

Of the compounds above, these have a tert-butyl group:
SMILES	Vaccinia Venus	VACV mCherry inh
CCC(c1nnnn1C(C)(C)C)N1CCN(c2cc(Cl)ccc2C)CC1 (centres undefined)	-29%	.
Cc1nn(-c2ccccc2)c(OC(=O)C(C)(C)C)c1Sc1ccccc1	-10%[7.34 µM]	-1%[7.34 µM]

Individual results from the results shown:
Under VACV mCherry inh, `Cc1nc(-c2ccc(NC(=O)C3CC3)cc2)cs1` has the entry -3%
Under VACV mCherry inh, `O=C(Oc1ccc(Br)cc1C(=S)N1CCOCC1)c1ccc([N+](=O)[O-])cc1[N+](=O)[O-]` has the entry -20%
Under Vaccinia Venus, `COC(=O)c1ccc(NC(=O)CN(Cc2ccccc2)S(=O)(=O)c2ccc(C)cc2)cc1` has the entry -6%
Under VACV mCherry inh, `COc1cccc(/C=N/NC(=O)c2cccc3ccccc23)c1` has the entry -27%

Next results follow:
SMILES	Vaccinia Venus	VACV mCherry inh
O=C(Cn1c(CN2CCCCC2)nc2ccccc2c1=O)NC1CCCCC1	-5%	-11%
COc1cccc2[nH]c3c(=O)n(CCN(C)C)cnc3c12	-5%	?
Cc1ccc(S(=O)(=O)N2CC(=O)N3CCN(CCN)C3C2)cc1 (centres undefined)	-20%	?
COc1ccc(N2CCN(C(=O)Cc3ccc(-n4c(=O)[nH]c5ccccc5c4=O)cc3)CC2)cc1	-15%	-23%
O=C(NC1CCCCCC1)C(=S)N1CCOCC1	-5%	3%

Bioassay records: PubChem, National Center for Advancing Translational Sciences (NCATS)
